From PubChem
PrP 5UTR inh: suppresses PrP 5' UTR mRNA reporter expression | cell-based PrP 5' UTR mRNA reporter, plate reader | inhibition, % (test concentration not listed) | actives 0.35% (n = 340,000);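 active means every replicate at 50% or more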;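 further: 0 = median of the neutral control wells; tested in H4 reporter cells; numbers are from one replicate; inactives centre near -14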
ugtP null kill: growth inhibition of S. aureus ugtP deletion strain | S. aureus RN4220 ugtP deletion, OD600 growth, 16 h; some inactives read as strong as hits | growth inhibition, % (no concentration beside the values) | actives 0.54% (n = 330,000) | AID 1259309;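 active means z-score under -3 and OD600 up to 0.15 on both plates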;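 further: plate controls were untreated wells for no effect and antibiotic for full effect; wells of about 80 µL received 100 nL stock; the first replicate is given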
RN4220 kill: S. aureus RN4220 growth inhibition; OD600, 16 h; inhibition, % (no concentration beside the values); actives 0.33% (n = 330,000); AID 1259311;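 active means z-score of -3 or lower and OD600 up to 0.18 on both plates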;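 further: plate controls were untreated cells for no effect and reference antibiotic for full effect; stock transfer was 100 nL into about 80 µL; one replicate is shown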
Mtb hypoxia inh: reduces hypoxia-regulated biosensor signal in M. tuberculosis; M. tuberculosis hypoxia-regulated fluorescent reporter, fluorescence; fluorescence inhibition, % (no concentration beside the values); actives 0.1% (n = 300,000); AID 1159583;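 active means 35 to 45% if threefold the growth effect, above 45% if 1.5-fold the growth effect; inactive means the rest, general growth blockers included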;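 further: wells of about 50 µL received 100 nL stock; 0% = vehicle wells and 100% = reference inhibitor wells; whole bacteria with a GFP reporter of the hypoxia response; strong numbers were not always called active; many hits fall short of the cut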
Autofluor counter: compound fluorescence in toxin protease inhibitor counterscreen | actives 3.1% (n = 360,000) | fluorescence intensity (no concentration beside the values) | compound autofluorescence counterscreen, microsphere flow cytometry; hits give high values;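 active means at least 3 SD above the mean of all compounds, about 16000 in these data; inconclusive means too few beads counted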;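 further: 100 nL of 1 mM stock went into each well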
BJeLR viability: BJeLR cell viability loss; BJeLR (HRASV12) viability, CellTiter-Glo ATP luminescence, 48 h; reference of the scale not given here; inhibition, % (concentration not given with the values); actives 0.17% (n = 300,000); AID 1554;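 active means replicate mean above 50%; inconclusive means above 50% but judged a plate artefact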;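 further: 50 nL library stock added to about 25 µL; numbers are from one replicate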
Mtb hypoxia inh growth: second read-out of Mtb hypoxia inh, no call of its own (marks repeat the call); growth inhibition, %; measured here: M. tuberculosis growth (absorbance);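 0% = vehicle and 100% = reference antibiotic; read after six days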
Starred values were filed as active, the others as inactive.

Results for Cc1nc(N2CCOCC2)nc(N2CCN(c3ccccc3)CC2)c1[N+](=O)[O-] ?
PrP 5UTR inh: -23; ugtP null kill: -13; RN4220 kill: -2.4; Autofluor counter: 5051; BJeLR viability: -9

How did Cc1ccc(-n2c(SCC(=O)Nc3cccc(C)c3)nc3c(oc4ccccc43)c2=O)cc1 do in these assays?
ugtP null kill: 13; RN4220 kill: 3.6; Mtb hypoxia inh: 4; BJeLR viability: 1; Mtb hypoxia inh growth: 4

Results for O=C(COc1cccc2c1CCN(Cc1ccc(Br)cc1)C2=O)NCc1ccco1 ?
PrP 5UTR inh: -23; ugtP null kill: 0; RN4220 kill: -2.4; Mtb hypoxia inh: 5; Autofluor counter: 2517; BJeLR viability: 2; Mtb hypoxia inh growth: 4

Results for COCCn1cnc2c(c1=O)c1nc3ccccc3nc1n2N=Cc1ccc(OC)c(OC)c1 ?
ugtP null kill: 2; RN4220 kill: 1.2; Mtb hypoxia inh: 1; Mtb hypoxia inh growth: 2

What do the screens show for `Cc1ccc2oc(=O)c3cnn(CC(=O)NCCN(C)C)c3c2c1`?
PrP 5UTR inh: -7; ugtP null kill: -4; RN4220 kill: -6.5; Mtb hypoxia inh: 6; Autofluor counter: 5169; BJeLR viability: 2; Mtb hypoxia inh growth: 4

How did CCCCn1c(N)c(N(CCOC)C(=O)c2cccc(N3C(=O)c4ccccc4C3=O)c2)c(=O)[nH]c1=O do in these assays?
PrP 5UTR inh: -1; ugtP null kill: 3; RN4220 kill: 3.9; Mtb hypoxia inh: 6; Autofluor counter: 6950; BJeLR viability: -1; Mtb hypoxia inh growth: 6

How did COc1ccccc1NC(=O)CSc1nc(=O)n(CCN(C)C)c2c1CCCC2 do in these assays?
PrP 5UTR inh: -11; ugtP null kill: 3; RN4220 kill: 1.4; Mtb hypoxia inh: 4; Autofluor counter: inconclusive; BJeLR viability: 14; Mtb hypoxia inh growth: 5

How did COCCCNC(=O)c1cc(-c2cccnc2)nc2ccc(S(=O)(=O)N3CCCCCC3)cc12 do in these assays?
PrP 5UTR inh: 1; ugtP null kill: 14; RN4220 kill: 4.8; Mtb hypoxia inh: 12; Autofluor counter: 4932; BJeLR viability: 15; Mtb hypoxia inh growth: 1

How did O=Nc1c(O)n(Cc2cccc(Cl)c2)c2ccccc12 do in these assays?
PrP 5UTR inh: -19; ugtP null kill: -21; RN4220 kill: 9.5; Mtb hypoxia inh: 6; Autofluor counter: 9501; BJeLR viability: -2; Mtb hypoxia inh growth: 0

Results for Cc1ccccc1C(=O)Nc1ccc(C(=O)NNC(=O)CCCOc2ccc(Cl)cc2Cl)cc1 ?
PrP 5UTR inh: -24; ugtP null kill: -11; RN4220 kill: -1.5; Mtb hypoxia inh: -2; Autofluor counter: 11403; BJeLR viability: 12; Mtb hypoxia inh growth: -1

A draw from above in order of SMILES length, low to high.
How did O=Nc1c(O)n(Cc2cccc(Cl)c2)c2ccccc12 do in these assays?
PrP 5UTR inh: -19; ugtP null kill: -21; RN4220 kill: 9.5; Mtb hypoxia inh: 6; Autofluor counter: 9501; BJeLR viability: -2; Mtb hypoxia inh growth: 0

Results for Cc1nc(N2CCOCC2)nc(N2CCN(c3ccccc3)CC2)c1[N+](=O)[O-] ?
PrP 5UTR inh: -23; ugtP null kill: -13; RN4220 kill: -2.4; Autofluor counter: 5051; BJeLR viability: -9

Results for Cc1ccccc1C(=O)Nc1ccc(C(=O)NNC(=O)CCCOc2ccc(Cl)cc2Cl)cc1 ?
PrP 5UTR inh: -24; ugtP null kill: -11; RN4220 kill: -1.5; Mtb hypoxia inh: -2; Autofluor counter: 11403; BJeLR viability: 12; Mtb hypoxia inh growth: -1

How did CCCCn1c(N)c(N(CCOC)C(=O)c2cccc(N3C(=O)c4ccccc4C3=O)c2)c(=O)[nH]c1=O do in these assays?
PrP 5UTR inh: -1; ugtP null kill: 3; RN4220 kill: 3.9; Mtb hypoxia inh: 6; Autofluor counter: 6950; BJeLR viability: -1; Mtb hypoxia inh growth: 6

(next part)
How did CC(C)C(O)(C#CCN1CCCCC1)C(C)C do in these assays?
PrP 5UTR inh: -15; ugtP null kill: 9; RN4220 kill: 8.3; Mtb hypoxia inh: 2; Autofluor counter: 2604; BJeLR viability: 0; Mtb hypoxia inh growth: 0

Results for CCC(=O)N1CCc2cc(S(=O)(=O)CCC(=O)Nc3ccc(CC)cc3)ccc21 ?
PrP 5UTR inh: -5; ugtP null kill: 5; RN4220 kill: 1.0; Autofluor counter: 4379; BJeLR viability: 3

How did CN1C(=O)[C@H]2[C@@H](c3ccc(F)cc3)N3C(=O)c4ccccc4NC(=O)[C@@]3(C)[C@H]2C1=O do in these assays?
PrP 5UTR inh: -34; Autofluor counter: 4015; BJeLR viability: 18

Results for Cc1c(N)c(C)c([N+](=O)[O-])c(C)c1[N+](=O)[O-] ?
PrP 5UTR inh: -57; ugtP null kill: 17; RN4220 kill: 13; Mtb hypoxia inh: 14; Autofluor counter: 4510; BJeLR viability: 7; Mtb hypoxia inh growth: 4

Results for CC(C)c1ccc2c(c1)C(c1ccc(N3CCOCC3)cc1)=NNC(c1cccs1)=N2 ?
PrP 5UTR inh: -32; ugtP null kill: -7; RN4220 kill: -0.4; Mtb hypoxia inh: 0; Autofluor counter: 9530; BJeLR viability: 1; Mtb hypoxia inh growth: 3

What do the screens show for `O=C(Nc1ccc(F)c([N+](=O)[O-])c1)C1CC(=O)N(Cc2ccccc2)C1` (stereo unspecified)?
PrP 5UTR inh: -15; ugtP null kill: -1; RN4220 kill: 0.8; Mtb hypoxia inh: 7; Autofluor counter: 4685; BJeLR viability: 4; Mtb hypoxia inh growth: 1

Results for COc1ccccc1N1CCN(C(=O)c2cc(-c3ccco3)on2)CC1 ?
PrP 5UTR inh: -15; ugtP null kill: 9; RN4220 kill: 5.2; Mtb hypoxia inh: 10; Autofluor counter: 5851; BJeLR viability: 0; Mtb hypoxia inh growth: 10

Results for CC1=C(C)CC(C(=O)NC2CCCC2)C(C(=O)O)C1 (stereo unspecified) ?
PrP 5UTR inh: -12; ugtP null kill: -1; RN4220 kill: -2.2; Mtb hypoxia inh: -3; Autofluor counter: 4171; BJeLR viability: -3; Mtb hypoxia inh growth: 11

What do the screens show for `O=Cc1ccc(-c2nc3ccccc3s2)o1`?
PrP 5UTR inh: -80; ugtP null kill: -2; RN4220 kill: 4.5; Mtb hypoxia inh: 4; Autofluor counter: 2561; BJeLR viability: -6; Mtb hypoxia inh growth: 3

What do the screens show for `O=C(NCc1ccccc1C(F)(F)F)c1cccc2c1C(=O)c1ccc(N3CCOCC3)cc1S2(=O)=O`?
PrP 5UTR inh: -21; ugtP null kill: 4; RN4220 kill: 15; Mtb hypoxia inh: 3; Autofluor counter: 3034; Mtb hypoxia inh growth: 9

What do the screens show for `Cc1nc(/N=C\N(C)C)sc1C(=O)Nc1ccccc1`?
PrP 5UTR inh: -11; Autofluor counter: 5972; BJeLR viability: 0

How did NS(=O)(=O)c1ccc(NNC(=O)c2ccccc2C(=O)O)cc1 do in these assays?
PrP 5UTR inh: -22; ugtP null kill: 6; RN4220 kill: 3.6; Mtb hypoxia inh: 5; BJeLR viability: 7; Mtb hypoxia inh growth: -2

How did CN1C(=O)C2C(C=Cc3ccccc3)N3C(=O)CN(Cc4ccccn4)C(=O)[C@@]3(C)C2C1=O (stereo partly specified) do in these assays?
ugtP null kill: 1; RN4220 kill: 4.9; Mtb hypoxia inh: -8; Mtb hypoxia inh growth: -8

Results for C/C(C=Nn1cnnc1)=C\c1ccco1 ?
ugtP null kill: 3; RN4220 kill: 1.1; Mtb hypoxia inh: 4; Mtb hypoxia inh growth: -20

What do the screens show for `COc1cccc(CC2(CO)CCCN(C/C=C/c3ccccc3OC)C2)c1` (stereo unspecified)?
PrP 5UTR inh: -15; ugtP null kill: 3; RN4220 kill: 1.5; Mtb hypoxia inh: 6; Autofluor counter: 2725; BJeLR viability: 6; Mtb hypoxia inh growth: 2

How did Cc1ccc(-c2cc(C(=O)N/N=C/c3c(C)nn(-c4ccccc4)c3C)[nH]n2)cc1 do in these assays?
PrP 5UTR inh: 70*; Autofluor counter: 2567; BJeLR viability: 42

How did O=[N+]([O-])c1cccc(NC(=S)N2CCc3ccccc3C2)c1 do in these assays?
PrP 5UTR inh: -37; Autofluor counter: 4061; BJeLR viability: -15

How did Cc1ccccc1NC(=O)Cn1cc(C(=O)C2CC2)c2ccccc21 do in these assays?
PrP 5UTR inh: -5; ugtP null kill: -6; RN4220 kill: 2.4; Mtb hypoxia inh: -2; Autofluor counter: 3236; BJeLR viability: 5; Mtb hypoxia inh growth: 0

What do the screens show for `Cc1ccc(C(C(=O)NC2CCCCC2)N(CCC(C)C)C(=O)CNC(=O)c2ccco2)o1` (stereo unspecified)?
PrP 5UTR inh: -3; ugtP null kill: 5; RN4220 kill: -0.2; Autofluor counter: 4654; BJeLR viability: 3

How did O=C(c1ccc(-c2cccc(C(F)(F)F)c2)o1)N1CCN(c2ccccc2)CC1 do in these assays?
PrP 5UTR inh: 4; ugtP null kill: -2; RN4220 kill: 3.2; Mtb hypoxia inh: -1; Autofluor counter: 4677; Mtb hypoxia inh growth: 0

What do the screens show for `CN(C)S(=O)(=O)N1CCC(Oc2ccc(C(=O)N3CCCCCCC3)cc2)CC1`?
PrP 5UTR inh: -24; ugtP null kill: 0; RN4220 kill: 1.7; Mtb hypoxia inh: -1; Autofluor counter: 5627; BJeLR viability: -6; Mtb hypoxia inh growth: 6

Results for Cc1cc(NC(=O)CN2CCCC(C)C2)no1 (stereo unspecified) ?
PrP 5UTR inh: -20; ugtP null kill: 5; RN4220 kill: 4.7; Mtb hypoxia inh: -6; Autofluor counter: 4143; BJeLR viability: -8; Mtb hypoxia inh growth: 3

What do the screens show for `Cn1c(=O)c2c(nc(SCCN3CCOCC3)n2Cc2ccc(Cl)cc2)n(C)c1=O`?
PrP 5UTR inh: -12; ugtP null kill: -1; RN4220 kill: -13; Mtb hypoxia inh: 3; Autofluor counter: 5897; Mtb hypoxia inh growth: 12

What do the screens show for `CSc1ncccc1-c1nc2ccccc2[nH]1`?
PrP 5UTR inh: -37; ugtP null kill: 12; RN4220 kill: 3.7; Mtb hypoxia inh: -6; Autofluor counter: 3913; BJeLR viability: -1; Mtb hypoxia inh growth: -8

What do the screens show for `COC(=O)[C@H](CCSC)NC(=O)NC1CC1`?
PrP 5UTR inh: -18; ugtP null kill: 7; RN4220 kill: 1.2; Mtb hypoxia inh: 5; Autofluor counter: 6148; BJeLR viability: 7; Mtb hypoxia inh growth: 9

Results for Cc1cccc2cc(CN(Cc3cccs3)C(=S)NCC3CCCO3)c(=O)[nH]c12 (stereo unspecified) ?
PrP 5UTR inh: -12; ugtP null kill: 5; RN4220 kill: 7.0; Mtb hypoxia inh: 1; Autofluor counter: 2650; BJeLR viability: 1; Mtb hypoxia inh growth: 3

Results for CCN(CC)S(=O)(=O)N1CCC(C(=O)NCCC2=CCCCC2)CC1 ?
PrP 5UTR inh: -58; ugtP null kill: 1; RN4220 kill: 0.7; Mtb hypoxia inh: 12; Autofluor counter: 4301; BJeLR viability: 2; Mtb hypoxia inh growth: 6

What do the screens show for `COc1ccc(CN2CCN(C(=O)c3cccnc3)CC2)cc1Br`?
PrP 5UTR inh: -47; ugtP null kill: 6; RN4220 kill: 9.9; Mtb hypoxia inh: 10; Autofluor counter: 5267; BJeLR viability: -8; Mtb hypoxia inh growth: 2

How did O=C(Oc1cccnc1)c1cc(S(=O)(=O)N2CCCCC2)ccc1Cl do in these assays?
PrP 5UTR inh: -17; ugtP null kill: -2; RN4220 kill: 3.0; Mtb hypoxia inh: 6; Autofluor counter: 21012*; BJeLR viability: -11; Mtb hypoxia inh growth: -2

How did O=[N+]([O-])c1cc([N+](=O)[O-])c(Oc2cc(F)cc(F)c2)cc1NN1CCCCC1 do in these assays?
PrP 5UTR inh: -9; ugtP null kill: 2; RN4220 kill: 5.8; Mtb hypoxia inh: 6; Autofluor counter: 4171; Mtb hypoxia inh growth: 4

Results for Nc1ncnc(Nc2ccccn2)c1[N+](=O)[O-] ?
PrP 5UTR inh: -35; ugtP null kill: 10; RN4220 kill: 4.1; Mtb hypoxia inh: 11; Autofluor counter: 3258; BJeLR viability: -9; Mtb hypoxia inh growth: 5

How did COC(=O)C1=NN(c2cccc(C)c2)C2C(=O)N(c3ccccc3OC)C(=O)C12 (stereo unspecified) do in these assays?
PrP 5UTR inh: -18; ugtP null kill: 5; RN4220 kill: 4.5; Mtb hypoxia inh: 20; Autofluor counter: 2513; BJeLR viability: 8; Mtb hypoxia inh growth: 1
